H5N1 CPE: antiviral screen in MDCK cells, H5N1 avian flu | cytopathic effect, luminescence, 72 h; hits give high values; no value below 0 was filed and about half of the inactive calls have no number; reference of the scale not given here | inhibition, % at 50 µM | 96,000 compounds, 0.07% hits | AID 740; in the data active = inhibition above about 25%
Numbers without * were called inactive; i = inactive.

SMILES	H5N1 CPE
CCOC(=O)C1CCN(C(=O)C2CC(=O)N(c3ccc(C)cc3)C2)CC1 (stereo unspecified)	0.8
CC(C)(C)c1cc(Cc2ccccc2)[nH]n1	i
CCCCCOC(=O)Cc1c(C)nc(-c2ccccc2)[nH]c1=O	i
Cc1ccc(NC(=O)CC2SC3=NCCN3C2=O)cc1 (stereo unspecified)	i
CCc1ccccc1NC(=O)/C(=C/c1ccco1)c1ccccc1	8.8
Cc1ccc2c(C)ccc(O)c2n1	i
O=C(COC(=O)c1ccncc1)NCc1ccccc1	i
Cc1cc(C)n(CC(O)Cn2c(C)c(C)c3ccccc32)n1 (stereo unspecified)	0.7
COc1cc(C(C[N+](=O)[O-])c2c(-c3ccccc3)cc3ccccn23)cc(OC)c1OC (stereo unspecified)	2.6
CC1(C)CC(=O)C(C(C2=C(O)CC(C)(C)CC2=O)c2cccnc2)C(=O)C1 (stereo unspecified)	i
O=C(c1cc(-c2cccc(O)c2)on1)N1CCc2ccccc2C1	i
OC(CNCc1ccc(F)cc1)(c1ccc(F)cc1)c1ccc(F)cc1	i
O=S(=O)(Nc1ccc(N2CCOCC2)cc1)c1ccccc1	0.7
O=C1C=C(N2CCN(C(=O)c3ccccc3)CC2)C2(CCCCC2)O1	0.5
Cc1ccc(S(=O)(=O)N(CC(=O)NC2CCCCCC2)c2ccccc2F)cc1	i
O=C(O)CCCCCNC(=O)c1cccc(Br)c1	0.4
COC(=O)CC1COc2ccccc2N1C(=O)c1ccc(C(C)(C)C)cc1 (stereo unspecified)	7.9
C=CCNc1nc(NCCO)nc(N2CCCC2)n1	1.2
CSc1nsc(SCC(=O)Nc2ccc3c(c2)OCCO3)n1	0.6
Cc1ccnc2nc(C(=O)NCc3cccs3)nn12	0.7
COc1cccc(C2/C(=C(\O)c3ccc(OC)c(OC)c3)C(=O)C(=O)N2c2cc(C)on2)c1 (stereo unspecified)	0.4
CCOC(=O)N1CCC(NC(=O)CS(=O)(=O)Cc2nc(-c3ccc(C)cc3)oc2C)CC1	0.1
Cc1cc(C)cc(NC(=O)Cn2cc3c(n2)CCCCC3)c1	0.9
N#Cc1c(N2CCOCC2)nc(N2CCCCC2)c2c1CCN(C1CCCCC1)C2	4.2
CCC(=O)NCCN1CCN(C(=O)CC)CC1	i
Cn1c2c(c(=O)n(C)c1=O)C(c1cccc([N+](=O)[O-])c1)Nc1ccccc1O2 (stereo unspecified)	0.2
COc1ccc(OCCSc2nnc(CC(=O)Nc3cccc(Cl)c3Cl)n2C)cc1	0.1
COCCNC(C(=O)Nc1cc(Cl)cc(Cl)c1)c1ccccc1 (stereo unspecified)	i
CCc1ccc(C2C(C#N)=C(N)SC(N)=C2C#N)cc1	0.7
O=C(O)C1CC=CCC1C(=O)NCc1ccccc1 (stereo unspecified)	0.6
CCc1ccc(NC(=O)CSc2nnc(-c3ccccn3)n2C)cc1	i
C=CCn1c(O)c(C=Nc2ccc(N(CC)CC)cc2)c(=O)[nH]c1=O	i
O=C(O)CCSCC(=O)c1ccc2c(c1)OCCO2	1.0
Cc1ccc(NC(=O)CSc2nnc(Cc3cccn3C)n2-c2ccc(F)cc2)c(C)c1	i
CCOc1ccc(N2C(=O)CC(N(O)c3ccccc3)C2=O)cc1 (stereo unspecified)	i
COc1cccc(/C=N/NC(=O)c2cccc([N+](=O)[O-])c2)c1OS(=O)(=O)c1ccccc1	i
Cc1nnc(NC(=O)CSc2nc3c(c(=O)n2C)SC(C)C3)s1 (stereo unspecified)	1.1
O=C(c1cccc(C(F)(F)F)c1)N1CCN(C2CCCCC2)CC1	0.9
CCN1C(=O)C2C(c3cccc(F)c3)NC(C)(C(=O)OC)C2C1=O (stereo unspecified)	0.5
Cn1c(/C=N/NC(=O)c2ccccc2Br)nc2ccccc21	1.7
Cc1ccc(NC(=O)CCc2nnc(SCC(=O)Nc3ccccc3C)n2C)cc1Cl	i
O=C(COc1cccc2cccnc12)Nc1nccs1	0.5
CC(=O)N1CCN=C1SCc1ccc(C)cc1	1.5
CCC(=O)N1CC2(C)CN(C(=O)CC)CC(C)(C1)C2	i
Cc1ccc(C)n1NC(=O)c1ccccc1	0.3
Cc1cc(C)c(C(=O)c2ccc(C(=O)N(C(C)C)C(C)C)cc2)c(C)c1	3.6
Cn1c(=O)[nH]c(=O)c2c1nc(N1CCCCC1)n2CC(O)CN1CCCCC1 (stereo unspecified)	0.6
O=c1c2c(-c3ccccc3)csc2ncn1/N=C/c1c2ccccc2cc2ccccc12	i
CCCCn1c(O)c(C(CC)=NCc2ccc3c(c2)OCO3)c(=O)[nH]c1=O	i
Cc1cccc(NC(=O)CSC(N)=O)c1C	i
CCCc1c(O)nc(SCc2ccccc2)[nH]c1=O	i
COc1ccc(CNC(=O)CN2C(=O)C3CCCN3c3ncc(Cl)cc32)cc1 (stereo unspecified)	i
COc1ccc(Cl)cc1CN1CCN(c2nc(C)cc(C)c2C#N)CC1	i
COc1ccc(C(=O)N/C(N)=N/c2nc3ccccc3o2)cc1	0.3
CC1(C)CC2CC(C)(CN2c2ncnc3ccccc23)C1 (stereo unspecified)	4.5
Cc1nn(-c2ccccc2)c2sc(C(=O)N3CCc4ccccc4C3)cc12	i
CCOC(=O)C1C(=O)NC(N2CCN(c3ccccc3)CC2)=NC1c1ccccc1 (stereo unspecified)	i
O=S(=O)(c1ccc(Cl)s1)N1CCN(c2ncccn2)CC1	1.0
Cn1c(N)c(C(=O)COC(=O)C2(c3ccc(F)cc3)CCCC2)c(=O)n(C)c1=O	i
Cc1ccc(-c2nn3c(C)nnc3c3ccccc23)cc1S(=O)(=O)NCc1ccco1	5.7
(next part)
SMILES	H5N1 CPE
CN(c1ccc(C(=O)NCc2ccccc2)cc1)S(C)(=O)=O	0.7
Cc1ccnc(N2C(=O)C3C4CC(C(Br)C4Br)C3C2=O)c1 (stereo unspecified)	i
O=C(CCc1c[nH]c2ccccc12)NCC1CCCO1 (stereo unspecified)	0.8
CCN(CC)S(=O)(=O)N1CCC(C(=O)NC(C)CCc2ccccc2)CC1 (stereo unspecified)	0.6
CCOC(=O)c1c(-n2c(C)cc(C=C3C(=O)NC(=S)NC3=O)c2C)sc2c1CCCC2	5.7
Cc1ccccc1-c1nc(Cc2ccc(Cl)cc2)no1	i
Cc1ccc(C2CC(c3cccc(C)c3)n3nc(N)nc3N2)cc1 (stereo unspecified)	i
N=c1ccccn1CC(O)COc1ccccc1 (stereo unspecified)	i
CCCCNc1nc(CC)c2c(c1C#N)CCCC2	0.9
O=C1CC(NC23CC4CC(CC(C4)C2)C3)C(=O)N1c1ccc2c(c1)OCO2 (stereo unspecified)	0.1
COc1ccc(/C=C/C(=O)c2ccc(O)cc2)cc1COc1ccc(F)cc1	0.3
CCOCCN1CCN(c2c(C)c(C)nc3cc(-c4cc(OC)cc(OC)c4)nn23)CC1	i
Cc1nc2ccc(NC(=O)C(F)(F)F)cc2o1	i
COc1ccccc1-c1cc(C(F)(F)F)nc(N2CCCCC2)n1	i
O=C1c2ccccc2C(=O)N1CCc1nc2ccccc2c(=O)n1CCCn1ccnc1	i
O=C(OCCN=C1NS(=O)(=O)c2ccccc21)C1CC(=O)N(c2ccc(Cl)cc2)C1 (stereo unspecified)	0.3
Cc1oc(-c2ccccc2F)nc1CS(=O)(=O)CC(=O)NCCCN1CCc2ccccc2C1	i
CCC(=NCCCO)c1c(O)n(-c2ccc(OC)cc2)c(=O)[nH]c1=O	i
COc1ccc(/C(O)=C2/C(=O)C(=O)N(Cc3ccco3)C2c2cccs2)cc1 (stereo unspecified)	0.4
O=C(CNS(=O)(=O)c1ccc(Br)s1)N1CCC(N2CCCCC2)CC1	0.9
O=c1cc(NCc2ccccc2)c2ccccc2o1	1.0
CCn1nnc(NC(=O)c2ccc(-c3ccc(Cl)cc3)o2)n1	i
O=C(CSc1nc(Cc2ccccc2)nc2ccccc12)Nc1ccc2c(c1)OCCO2	i
Cc1c(O)ccc(/C(Cc2ccc3ccccc3n2)=N\O)c1O	1.2
CN(CCCNC(=O)C1CCC(=O)N1Cc1ccccc1Cl)c1ccccc1 (stereo unspecified)	i
N#Cc1c(SCc2cccc(Cl)c2)sc(C(=O)c2ccccc2)c1N	4.5
CCOC(=O)c1sc(NC(=O)c2cccnc2)nc1C	i
CCOC(=O)/C(C#N)=C1/C=CNC(=O)N1	i
CCOc1ccc(C(F)(F)F)cc1NC(C)=O	i
CN=C(Nc1cc(C)nn1CCC#N)c1ccc(F)cc1	0.1
COc1cccc(C(=O)N2CCN(Cc3ccccn3)CC2)c1OC	0.1
CCOC(=O)N1CCN(C(=O)CN(Cc2ccccc2)S(=O)(=O)c2ccc(OC)c(Cl)c2)CC1	i
CCOc1cc(CNCCc2ccc(S(N)(=O)=O)cc2)ccc1OCc1ccccc1	i
COc1ccc(CCNC(=O)CSC2=Nc3ccccc3C3=NC(C(C)C)C(=O)N23)cc1OC (stereo unspecified)	1.6
CC(=O)Nc1ccc(S(=O)(=O)NCCC(=O)OCCN2C(=O)c3ccccc3C2=O)cc1	0.1
O=C(Nc1cccnc1)c1ccc(Br)s1	0.4
CCN(CC)S(=O)(=O)c1ccc(C(=O)NCc2cccs2)cc1	1.5
COc1cc(C)ccc1OCCCOc1ccccc1Br	1.3
CC1Cc2ccccc2N1C(=O)CSc1nc2cc3c(cc2cc1C#N)OCO3 (stereo unspecified)	1.1
CCC(C)(NC(=O)c1ccc(=O)[nH]c1)C(=O)NC1CCCC1 (stereo unspecified)	2.5
Cc1cccc(OCC(O)Cn2c(=N)n(CCN3CCOCC3)c3ccccc32)c1 (stereo unspecified)	0.5
COc1ccc(Cc2nnc(NC(=O)C3CCCO3)s2)cc1 (stereo unspecified)	0.9
CCOC(=O)c1[nH]c(C)c(C(=O)N2CCOCC2)c1C	1.1
CC(=O)Nc1ccc(NC(=O)CN(c2ccc(C34CC5CC(CC(C5)C3)C4)cc2)S(C)(=O)=O)cc1	0.7
Cc1ccc(S(=O)(=O)N(CC(=O)O)Cc2ccccc2F)cc1	0.5
CCOc1ccc(C(=O)Nc2ccc(NC(=O)c3ccco3)c(Cl)c2)cc1Br	i
COC(=O)c1ccc(-n2nnnc2SCc2nn[nH]n2)cc1	i
O=C(CCn1c(=O)oc2ccccc21)Nc1ccccc1	0.4

Arranged by molecular weight (lowest first): 18 of the compounds above
SMILES	H5N1 CPE
CC(=O)N1CCN=C1SCc1ccc(C)cc1	1.5
O=C(COC(=O)c1ccncc1)NCc1ccccc1	i
Cc1ccnc2nc(C(=O)NCc3cccs3)nn12	0.7
CCCc1c(O)nc(SCc2ccccc2)[nH]c1=O	i
CC1(C)CC2CC(C)(CN2c2ncnc3ccccc23)C1 (stereo unspecified)	4.5
Cc1ccc(NC(=O)CC2SC3=NCCN3C2=O)cc1 (stereo unspecified)	i
CN(c1ccc(C(=O)NCc2ccccc2)cc1)S(C)(=O)=O	0.7
CCN1C(=O)C2C(c3cccc(F)c3)NC(C)(C(=O)OC)C2C1=O (stereo unspecified)	0.5
O=S(=O)(c1ccc(Cl)s1)N1CCN(c2ncccn2)CC1	1.0
CSc1nsc(SCC(=O)Nc2ccc3c(c2)OCCO3)n1	0.6
OC(CNCc1ccc(F)cc1)(c1ccc(F)cc1)c1ccc(F)cc1	i
CCOC(=O)C1CCN(C(=O)C2CC(=O)N(c3ccc(C)cc3)C2)CC1 (stereo unspecified)	0.8
O=C1CC(NC23CC4CC(CC(C4)C2)C3)C(=O)N1c1ccc2c(c1)OCO2 (stereo unspecified)	0.1
CCCCn1c(O)c(C(CC)=NCc2ccc3c(c2)OCO3)c(=O)[nH]c1=O	i
Cn1c(=O)[nH]c(=O)c2c1nc(N1CCCCC1)n2CC(O)CN1CCCCC1 (stereo unspecified)	0.6
O=C1c2ccccc2C(=O)N1CCc1nc2ccccc2c(=O)n1CCCn1ccnc1	i
Cc1ccc(-c2nn3c(C)nnc3c3ccccc23)cc1S(=O)(=O)NCc1ccco1	5.7
COc1cccc(/C=N/NC(=O)c2cccc([N+](=O)[O-])c2)c1OS(=O)(=O)c1ccccc1	i

(next part)
SMILES	H5N1 CPE
Cn1c(NC(=O)c2ccccc2NC(=O)C(C)(C)C)nc2ccccc21	8.3
C=CCSc1nncn1/N=C/c1ccc(OC)cc1	2.0
CCOC(=O)Nc1ccc2c(c1)N(C(=O)CN1CCN(C)CC1)c1ccccc1S2	i
Nc1ccc(CC2SC(=O)NC2=O)cc1 (stereo unspecified)	i
O=C(CSc1nc2ccccc2s1)NCCCN1CCOCC1	0.6
Cc1occc1-c1nnc(SCC(=O)Nc2ccccc2)n1C(C)c1ccccc1 (stereo unspecified)	0.5
Cc1[nH]nc(N=CC2=C(O)CC(C)(C)CC2=O)c1-c1ccccc1	1.3
Cc1cc(C)nc(NC(=O)c2ccc(C)c([N+](=O)[O-])c2)n1	2.3
CCOC(=O)C1CCN(c2c(NCc3ccc(C(=O)NCCC(C)C)cc3)c(=O)c2=O)CC1	i
CCOC(=O)C1C(c2cccs2)NC(=O)N(C)C1(O)C(F)(F)F (stereo unspecified)	0.6
COc1ccc(OC)c(C2N(c3ccc(Cl)cc3)C(=O)C3CCCN32)c1 (stereo unspecified)	i
C=CCNS(=O)(=O)c1ccc2nsnc2c1	0.4

Next part; the last 2 above are carried over.
SMILES	H5N1 CPE
COc1ccc(OC)c(C2N(c3ccc(Cl)cc3)C(=O)C3CCCN32)c1 (stereo unspecified)	i
C=CCNS(=O)(=O)c1ccc2nsnc2c1	0.4
COCCOC(=O)C1=C(C)NC(SCC(=O)NC(C)(C)C)=C(C#N)C1c1ccco1 (stereo unspecified)	0.0
CCOCc1cnc(C)nc1NCC(=O)c1c(C)[nH]c2cc(C)ccc12	i
CCC1SC2=NC(C)=C(C(=O)OCCOC)C(/C=C/c3ccccc3OC)N2C1=O (stereo unspecified)	i
O=C(CN(CCc1ccccc1)C(=O)Cn1nnc(-c2cccs2)n1)NCc1ccco1	0.9
CCOc1cc(NC(=O)C2CCCCC2)c(OCC)cc1NC(=O)c1ccco1	0.3
Cc1cc(NC(=O)/C=C/C(=O)N(c2ccccc2C)C(C(=O)NC2CCCC2)c2ccc(F)cc2)no1 (stereo unspecified)	i
Cc1ccc2cc(CN(CCCO)S(=O)(=O)c3cccc4nsnc34)c(=O)[nH]c2c1C	0.3
CC(C)(C)NC(NC(=O)Cc1ccccc1)C(Cl)(Cl)Cl (stereo unspecified)	i

This is a subset; rates above refer to the full screens.
